# RanGTP-Imp inh: disruptors of Ran-importin-beta complex formation – biochemical, FRET, CFP-Ran, YFP-importin-beta, homogeneous, primary screen. cell-free CFP-Ran/YFP-importin-beta FRET ratio. inhibition, % (no concentration beside the values). 1.1% of 300,000 active. AID 2216;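 active = most replicates above 15%; inconclusive = exactly half above 15%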;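 also: 0% = DMSO wells and 100% = Ran loaded with GDP instead of GTP; wells of about 40 µL received 100 nL stock; the first replicate is given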
# Vif A3G: inhibitors of Vif binding to APOBEC3G peptide, primary screen, biochemical, TR-FRET, GST-Vif 1-94, biotin-A3G peptide, dose response retest (AID 1117319); TR-FRET GST-Vif / biotin-A3G peptide binding; higher % means a stronger effect; test concentration not given here; strong numbers were not always called active; 0.57% of 260,000 active; inhibition, %, or IC50 in µM where a hit was titrated;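 active = above the screen mean plus three standard deviations and confirmed in dose response; inconclusive = results disagree or hit not tested in dose response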;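 also: Vif residues 1-94 fused to GST binding biotinylated APOBEC3G peptide 110-148; 0% = full assay without inhibitor and 100% = GST in place of GST-Vif; retest series ran down from 100 µM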
# HNF4A DNA FP: change in binding of human HNF4 alpha to DNA; 0.3% of 360,000 active; HNF4a-FITC DNA binding, fluorescence polarization, 1 h; activity change, % at 10 µM; P41235; in the data active = activity change above about 30%, passing the limit was not always enough;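 also: controls were the assay level and a saturating level of protein; the project sought stronger binding though the title names inhibitors; some compounds called inactive have numbers as strong as hits; positive values seem to mean higher polarization but the record does not say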
# Target sequence (P41235 whole entry, looked up): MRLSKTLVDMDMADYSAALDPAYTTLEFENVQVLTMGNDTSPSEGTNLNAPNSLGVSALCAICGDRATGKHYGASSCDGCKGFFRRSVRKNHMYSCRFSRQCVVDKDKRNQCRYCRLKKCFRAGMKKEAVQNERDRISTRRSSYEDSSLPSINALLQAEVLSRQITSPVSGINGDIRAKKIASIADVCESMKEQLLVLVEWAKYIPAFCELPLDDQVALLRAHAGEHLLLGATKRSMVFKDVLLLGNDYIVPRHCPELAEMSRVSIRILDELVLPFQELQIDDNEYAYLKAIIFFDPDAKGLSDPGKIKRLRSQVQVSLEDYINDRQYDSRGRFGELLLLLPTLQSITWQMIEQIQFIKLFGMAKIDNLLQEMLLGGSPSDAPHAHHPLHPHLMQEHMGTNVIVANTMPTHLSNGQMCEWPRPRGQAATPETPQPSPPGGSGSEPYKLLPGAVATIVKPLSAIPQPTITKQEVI
# B2AR ag: activates human beta-2 adrenergic receptor causing internalization. AID 504454. P07550. Am2.2-beta2AR cells, FAP receptor internalization, flow cytometry; reference of the scale not given here. 0.43% of 340,000 active. response, % (concentration not given with the values);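 active = response above a set limit, near 3 SD of response in nonfluorescent compounds, cut at about 42% in these data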;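 also: stock transfer was 100 nL into about 11 µL; a reference agonist was the positive control; negative values mostly stem from fluorescent compounds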
# Target sequence (P07550 whole entry, looked up): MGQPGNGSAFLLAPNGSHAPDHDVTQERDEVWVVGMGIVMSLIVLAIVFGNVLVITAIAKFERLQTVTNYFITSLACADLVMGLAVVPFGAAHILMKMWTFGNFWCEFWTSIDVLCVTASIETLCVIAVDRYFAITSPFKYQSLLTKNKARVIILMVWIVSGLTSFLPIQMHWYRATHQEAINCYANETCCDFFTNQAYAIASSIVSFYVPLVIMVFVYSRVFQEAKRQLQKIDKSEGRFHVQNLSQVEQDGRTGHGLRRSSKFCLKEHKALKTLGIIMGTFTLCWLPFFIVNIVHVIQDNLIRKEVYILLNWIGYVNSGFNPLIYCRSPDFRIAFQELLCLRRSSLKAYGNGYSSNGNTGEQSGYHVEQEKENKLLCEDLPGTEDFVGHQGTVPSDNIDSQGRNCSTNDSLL
# Calb FLC: affects C. albicans growth with fluconazole. C. albicans CaCi-2 (fluconazole-resistant clinical isolate) + fluconazole, Alamar Blue growth, 48 h. growth inhibition, % (test concentration not listed). 0.57% of 300,000 active. AID 1979;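 active = most replicates above 75%; inconclusive = exactly half above 75%; inactive = most below 75%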;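 also: all wells also contain fluconazole at 8 µg/ml as a sub-toxic cotreatment; 0% = median of DMSO wells and 100% = median of geldanamycin control wells; wells of about 8 µL received 7.5 nL stock; the first replicate is given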
# ALR H2O2 inh: human ALR oxidase inhibition via reduced H2O2 | purified ALR, DTT oxidation, H2O2 HRP-luminol luminescence | AID 485317 | P55789 | 3.8% of 290,000 active | inhibition, % (test concentration not listed);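 active = mean and each replicate at 75% or more; inconclusive = only one of the two met; inactive = neither met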;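 also: stock transfer was 7.5 nL into about 7.5 µL; 0% = neutral wells and 100% = wells with inactivated enzyme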
# LANA-H2A inh: blocks KSHV LANA binding to histone H2A/H2B. AID 2629. 0.6% of 320,000 active. inhibition, % (test concentration not listed). cell-free LANA-H2A/H2B peptide, fluorescence polarization; in the data active = inhibition mostly above about 10%, no sharp cut-off; inactive = mostly below about 6.7%;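 also: stock transfer was 7.5 nL into about 10 µL; 0% = median of vehicle wells and 100% = median of positive control wells; one replicate is shown; the record names a cut of 25% in any replicate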
# * hit, by the source's call; u = inconclusive; x = no result given; & = joins results of further samples. Random draw from the library. About 6.3% of those tested had a hit in this group.
Compound,ALR H2O2 inh,LANA-H2A inh,Calb FLC,HNF4A DNA FP,RanGTP-Imp inh,Vif A3G,B2AR ag
COCCCNC(=O)/C=C/c1ccc(Cl)cc1Cl,-12,0.0,-3,2.9,1.6,0%,-9
O=c1[nH]c(C2CCN(S(=O)(=O)c3ccc(C(F)(F)F)cc3)CC2)nc2c1nnn2Cc1ccc(F)cc1,-6,0.4,11,-0.9,0.9,2%,4
O=C(NCc1ccccn1)c1n[nH]c(=O)c2ccccc12,-8,3.5,-3,2.5,3.6,-2%,-6
Cc1nnc(NC(=O)CSc2nnc(Cc3ccccc3)n2Cc2ccccc2)s1,-5,2.5,-19,3.1,1.8,-4%,-11
COC(c1ccccc1)c1nnc(CCC(=O)N(C)CCOc2ccccc2)o1 (centres undefined),3,0.0,-13,-3.6,-1.8,x,1
CCOC(=O)C(NCc1ccc(F)cc1)(NC(=O)c1ccccc1)C(F)(F)F (centres undefined),x,-3.8,15,2.2,-1.3,0%,-3
N#CC1(c2ccccc2)CCC(NCCc2ccccc2)CC1 (centres undefined),-2,9.4,-6,4.6,2.8,4%,-18
O=C(Oc1cccc2c(OC(=O)N3CCOCC3)cccc12)N1CCOCC1,-13,1.1,2,-1.3,u,11%,-9

# Three of the entries above in order of their number in B2AR ag, low to high:
canonical_smiles,ALR H2O2 inh,LANA-H2A inh,HNF4A DNA FP,RanGTP-Imp inh,Vif A3G,B2AR ag
Cc1nnc(NC(=O)CSc2nnc(Cc3ccccc3)n2Cc2ccccc2)s1,-5,2.5,3.1,1.8,-4%,-11
O=C(NCc1ccccn1)c1n[nH]c(=O)c2ccccc12,-8,3.5,2.5,3.6,-2%,-6
COC(c1ccccc1)c1nnc(CCC(=O)N(C)CCOc2ccccc2)o1 (centres undefined),3,0.0,-3.6,-1.8,x,1

# More entries:
Compound,ALR H2O2 inh,LANA-H2A inh,Calb FLC,HNF4A DNA FP,RanGTP-Imp inh,Vif A3G,B2AR ag
CN(Cc1ccccn1)Cc1nc(COc2ccccc2)no1,-6,-1.3,4,6.1,4.7,x,-1
OCC1CCCN(C(=S)Nc2ccc(OC(F)F)cc2)C1 (centres undefined),3,1.6,7,3.7,2.3,x,-3
CC(C)C(=O)Nc1cccc(C(=O)Nc2nncs2)c1,-2,-0.5,-7,1.1,-0.5,-3%,-4
O=C(CSCC(=O)Nc1nc(-c2ccc3c(c2)OCO3)cs1)Nc1nccs1,99*,-0.5,-5,0.6,-3.9,x,10
Cc1ccc2oc(C(=O)NCc3ncc(C)[nH]3)c(C)c2c1,-3,4.3,-5,-5.7,2.9,x,-11
C#CCOCCOCCOCCNc1nc(N2CCN(C(=O)[C@H](Cc3ccc(O)cc3)n3cc([C@@H](N)C(C)CC)nn3)CC2)nc(N2CCN(C(=O)[C@H](Cc3cc4ccccc4[nH]3)n3cc([C@@H](N)CC(C)C)nn3)CC2)n1 (some centres undefined),-8,-4.1,10,x,12,x,x
COc1cccc(C2C(C(C)=O)=C(O)C(=O)N2CCNCCO)c1 (centres undefined),0,0.5,-4,x,2.3,-1%,x
CCN(CC(=O)Nc1ccc(NC(C)=O)cc1)C(=O)c1ccc(=O)n(C)n1,-5,-2.6,x,-1.4,x,-5%,2
COc1ccc(C2CC(C(F)(F)F)n3nc(CO)c(Cl)c3N2)cc1OC (centres undefined),-5,-1.4,-2,5.0,-3.4,5%,9
O=C(c1ccoc1)N1CCC2(CC1)Oc1ccc(Cl)cc1C(=O)C21CC(c2cccnc2)=NO1 (centres undefined),1,-1.4,63,-1.7,-1.7,1%,-14
COc1ccc(OC)c(CNS(=O)(=O)c2cn(C)cn2)c1,-3,-2.6,15,7.3,7.4,x,2
CC(C)(C)c1ccc(OCCON2C(=O)CCC2=O)c(Cl)c1,-16,-4.1,-14,-1.6,0.3,-6%,-9
CCCCS(=O)(=O)N1CCCC(C(=O)Oc2ccccc2OC)C1 (centres undefined),1,-0.4,-7,-4.5,1.8,x,5
CCn1c2ccccc2c2nnc(SCC(=O)c3ccccc3)nc21,-9,-0.4,17,-0.9,3.3,4%,-6
CCN(CC)S(=O)(=O)c1cccc(-c2cn3cccnc3n2)c1,99*,-1.3,2,4.1,8.1,-10%,41
CCN1CCSc2ccc(C(=O)NCc3ccccc3C)cc21,90*,-6.7,8,-2.1,2.7,x,-1
COC(=O)c1ccc(Cl)c(-c2ccc(/C=N/NC(=O)Nc3ccccc3)o2)c1,-6,2.2,-1,-7.4,-2.5,-2%,-7
COc1ccc(OC)c(C2=NS(=O)(=O)N(C)C(C(=O)N3CCC4(CC3)OCCO4)=C2)c1,3,-5.3,0,1.6,1.0,x,-5
CCC(C)NS(=O)(=O)c1ccc(N)cc1 (centres undefined),-4,-1.7,5,1.8,-0.1,x,-1
Oc1oc(-c2ccccc2)nc1C=Nc1cccc2ccccc12,-9,-3.5,35,2.9,27*,15%,-4
COc1ccc(CCNC(=O)c2cc(Cl)nc3ccccc23)cc1,-1,1.4,6,-0.3,0.0,-4%,-4
O=C(CSc1nnc(-c2ccco2)n1-c1ccccc1Cl)Nc1cccc(C(=O)O)c1,-4,-1.5,1,-0.1,-3.4,-1%,-5
O=C(NCc1ccccc1)c1cccc(S(=O)(=O)N2CCCCC2)c1,36,1.3,-8,0.2,0.8,-7%,1
S=C1NC2(CCCCCC2)N=C1c1ccccc1,-1,2.2,-10,-0.1,4.1,67%,-3

# ALR H2O2 inh: hit marks shown above.
compound	ALR H2O2 inh	LANA-H2A inh	HNF4A DNA FP	RanGTP-Imp inh	Vif A3G	B2AR ag
O=C(CSCC(=O)Nc1nc(-c2ccc3c(c2)OCO3)cs1)Nc1nccs1	99*	-0.5	0.6	-3.9	x	10
CCN(CC)S(=O)(=O)c1cccc(-c2cn3cccnc3n2)c1	99*	-1.3	4.1	8.1	-10%	41
CCN1CCSc2ccc(C(=O)NCc3ccccc3C)cc21	90*	-6.7	-2.1	2.7	x	-1

# (more compounds)
Compound,ALR H2O2 inh,LANA-H2A inh,Calb FLC,HNF4A DNA FP,RanGTP-Imp inh,Vif A3G,B2AR ag
CCn1c(-c2cc(-c3cccc(OC)c3)nc3ccccc23)n[nH]c1=S,63,-0.2,23,2.4,-2.1,-4%,-4
Nc1cnnc(N/N=C\c2ccccc2)c1Cl,15,3.2,-6,-4.2,-0.3,x,-6
CCCOc1cc(C)c(S(=O)(=O)n2nnc3ccccc32)cc1C,x,1.2,-2,-0.8,-4.3,2%,3
CC(C)Cc1nc2oc3c(NCC(C)O)ncnc3c2c2c1CCCC2 (centres undefined),1,-5.8,-14,4.6,-1.6,66%,-3
COc1cc(Cl)ccc1OCc1cc(C(=O)N2CCCCCCC2)no1,1,3.2,-4,6.0,-1.1,x,5
COc1ccc(CCNC(=O)Cc2ccc(C)cc2)cc1OC,-4,-0.6,-1,-1.8,1.4,x,1
COc1ccccc1CN1CCC(n2nccc2NC(=O)c2ccccc2Cl)CC1,-11,-2.9,-6,1.4,-2.2,x,2
Cc1cccc(C(=O)Nc2cccc(-c3cnc4ccccc4n3)c2)c1,-6,6.0,19,0.9,2.8,5%,2

# Limited to HNF4A DNA FP, Calb FLC and RanGTP-Imp inh, for some of the entries so far:
compound | HNF4A DNA FP | Calb FLC | RanGTP-Imp inh
CCCOc1cc(C)c(S(=O)(=O)n2nnc3ccccc32)cc1C | -0.8 | -2 | -4.3
CC(C)Cc1nc2oc3c(NCC(C)O)ncnc3c2c2c1CCCC2 (centres undefined) | 4.6 | -14 | -1.6
COc1cc(Cl)ccc1OCc1cc(C(=O)N2CCCCCCC2)no1 | 6.0 | -4 | -1.1

# Remaining list, next part:
Compound,ALR H2O2 inh,LANA-H2A inh,Calb FLC,HNF4A DNA FP,RanGTP-Imp inh,Vif A3G,B2AR ag
CSc1ncc(C(=O)Nc2ccccc2C)c(C)n1,x,3.0,-6,3.6,0.3,1%,10
COc1ccc(Cc2nc3ccc(C(=O)N(C)CCc4cnn(C)c4)cc3o2)cc1OC,x,x,0,-7.2,-1.2,-1%,20
NC(=O)c1sc2nc3c(c(-c4ccco4)c2c1N)CCCC3,0,1.8,16,-2.0,0.6,-9%,6
Cn1c(N)c(N=Cc2ccccc2)c(=O)n(C)c1=O,x,x,x,1.1,x,-7%,-6
CC(C)CC(=O)Nc1ccc(C(=O)COC(=O)Cc2n[nH]c(=O)c3ccccc23)cc1,-3,0.6,x,-1.7,x,8%,4
Cc1ccc(-n2nnc(-c3cccnc3Cl)n2)cc1,2,2.6,-8,-0.7,-2.5,3%,-6
O=c1[nH]cnc2c1nc(SCc1ccccc1)n2C1OC(CO)C(O)C1O (centres undefined),x,1.1,4,-2.7,u,0%,-1
CCN(CC)c1ccc(NC(=O)CNCc2ccccc2Cl)c(C)c1,99*,2.6,-8,0.1,1.3,3%,-1

# Single entries from above:
# RanGTP-Imp inh result of NC(=O)c1sc2nc3c(c(-c4ccco4)c2c1N)CCCC3 reads 0.6
# Calb FLC result of COc1ccc(Cc2nc3ccc(C(=O)N(C)CCc4cnn(C)c4)cc3o2)cc1OC reads 0
# HNF4A DNA FP result of CC(C)CC(=O)Nc1ccc(C(=O)COC(=O)Cc2n[nH]c(=O)c3ccccc23)cc1 reads -1.7

# Remaining list, next part:
Compound,ALR H2O2 inh,LANA-H2A inh,Calb FLC,HNF4A DNA FP,RanGTP-Imp inh,Vif A3G,B2AR ag
C=CCN=c1scc(-c2ccccc2)n1/N=C/c1ccccn1,28,-3.0,40,-4.9&-2.6,0.0,11%,-13&-17
CCNC(=O)CC1C(=O)N(c2ccc(C)cc2)C(=O)N1CCOC (centres undefined),-6,2.4,-7,-1.3,-5.4,x,-1
O=C(NCc1ccc(Cl)cc1)c1cc2ccccc2oc1=O,-1,-2.0,-4,-0.4,4.5,x,-9
Cc1ccc(-c2nc(C#N)c(NCCc3ccccn3)o2)cc1,-1,-3.3,4,3.5,-0.9,-3%,-7
COc1ccc(S(=O)(=O)N2C(=O)/C(=C3\SC(N)=NC3=O)c3ccccc32)cc1,-2,-1.7,-4,2.1,-3.2,1%,8
O=C(NC(Cc1ccccc1)C(=O)N1CCN(S(=O)(=O)c2ccccc2F)CC1)c1ccccc1 (centres undefined),-18,-0.7,x,-0.9,x,x,-6
O=C(O)C1CC(=O)N(Cc2cccs2)C1 (centres undefined),-3,1.4,26,-2.4,3.6,-1%,-7
O=C(Nc1ccc(Cl)c(S(=O)(=O)N2CCOCC2)c1)C1CCCC1,x,-3.9,x,-0.1,x,x,7
COc1ccccc1N1CCN(CCC(=O)Nc2cccc(Cl)c2)CC1,12,-4.2,-14,1.3,-2.2,-4%,-3
COc1ccccc1NC(=O)C1CCCN(S(=O)(=O)c2ccccc2)C1 (centres undefined),-4,-5.9,x,-0.6,x,x,10
CS(=O)(=O)N1CCC(C(=O)Nc2cccc(Cl)c2Cl)CC1,12,2.5,-3,1.8,-1.3,0%,5
COc1ccc(/C=C/C(=O)Nc2ccc(S(=O)(=O)N3CCOCC3)cc2)c(OC)c1,-3,-0.9,x,-1.7,x,0%,15
CC(=O)Nc1ccc(OC(=O)C(CCS(C)(=O)=O)N2C(=O)c3ccccc3C2=O)cc1 (centres undefined),24,-0.4,-1,-1.1,0.3,-2%,-5
CCOCc1nnc(NC(C)=O)s1,-13,-5.8,-12,0.0,2.3,u,18

# Assay outcomes from PubChem BioAssay.
